# Screening results: PubChem, ICCB-Longwood Screening Facility, Harvard Medical School
# CapD inh – blocks the Bacillus anthracis CapD enzyme; purified CapD enzyme, fluorescence intensity read-out; active compounds read low; some hits fall short of the stated cut; z-score (concentration not given with the values); AID 492967; actives 0.23% (n = 140,000);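 active = z-score under -4 in either of two replicates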;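 note: stock transfer was 100 nL into about 40 µL; score is relative to mean and spread of the plate; one replicate is shown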
# AID504770 – E. coli YBA685 growth inhibition, screen for V. cholerae RctB inhibitors. z-score (test concentration not listed). E. coli YBA685 rctB-dependent plasmid, OD600 growth, 3 h; active compounds read low. actives 0.27% (n = 130,000). AID 504770;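 active = z-score under -2 on both plates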;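 note: wells of about 30 µL received 100 nL stock; score is relative to mean and SD of the test wells; the first replicate is given; strong numbers were not always called active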
# The depositor's hits bear a star; . = not tested or not shown; & = joins results of further samples. Some of the compounds tested; count on the stated rates, not on these rows.
SMILES,CapD inh,AID504770
CC(C)c1ccc(C2OC3(C(=O)c4ccccc4C3=O)C3C(=O)N(c4cccc(C(F)(F)F)c4)C(=O)C23)cc1 (centres undefined),0.305,.
COC(=O)c1cccc(C(=O)Nc2cccc3ccccc23)n1,-0.48,-0.5
O=C(OCc1cc(=O)oc2cc(O)ccc12)c1cccnc1Cl,.,1.6
N#Cc1ccc(-c2cccnc2)n(CC(=O)N2CC(=O)Nc3ccccc32)c1=O,.,0.15
COc1ccc(OC)c(N2CC(c3nc4ccccc4n3Cc3ccccc3F)CC2=O)c1 (centres undefined),-0.75,0.4
CCOC(=O)c1cnc2cc(Cl)c(F)cc2c1N1CC(C)OC(C)C1 (centres undefined),-0.415,-1.05
FC(F)(F)c1ccc2nc(-c3ccccc3)c(-c3ccccc3)nc2c1,-0.345,.
COc1cc2[nH]c(=S)nc(NCCC(C)C)c2cc1OC,-1.12,2.85
Cc1ccc(-c2nc(N)ncc2N=Nc2cc(Cl)cc(Cl)c2)cc1,0.14,.
COC(=O)c1cccc(NC(=O)Cc2cccs2)c1C,0.19,0.25
COc1ccc(/C=C2\SC(=O)N(C)C2=O)c2ccccc12,-0.465,1.25
O=C(O)CC(C(=O)O)C1SC(=O)NC1=O (centres undefined),.,0.15
Cc1cc(C)cc(OCC(=O)NCc2ccc3c(c2)OCO3)c1,0.315,-0.55
COc1ccc(NC(=O)c2cc3ccc(O)cc3o/c2=N\O)cc1,.,-0.15
O=C1c2ccccc2C(=O)c2c1oc1c3c(ccc21)OCN(C1CCS(=O)(=O)C1)C3 (centres undefined),.,-1.35
NS(=O)(=O)c1ccc(CCNC(=O)c2ccc3c(=O)n(CCC4=CCCCC4)c(=S)[nH]c3c2)cc1,0.84,.
Cc1nn(-c2ccccc2)c(Cl)c1C1C(C#N)=C(N)Oc2c1c(=O)oc1ccccc21 (centres undefined),-0.27,.
CCOC(=O)N1CCN(S(=O)(=O)N2CCCC(C(=O)NCCC(C)C)C2)CC1 (centres undefined),0.21,1.15
CC(C)(C)NCC(O)c1ccccc1Cl (centres undefined),0.17,0.75
CCOC(=O)C1=C(C)N=c2s/c(=C\c3ccc(OC(C)=O)c(OCC)c3)c(=O)n2C1c1ccc(OC)cc1 (centres undefined),0.215,.

# Retrieved by structure from the entries so far, two records:
SMILES,CapD inh,AID504770
CCOC(=O)c1cnc2cc(Cl)c(F)cc2c1N1CC(C)OC(C)C1 (centres undefined),-0.415,-1.05
CC(C)(C)NCC(O)c1ccccc1Cl (centres undefined),0.17,0.75

# Next results follow.
SMILES,CapD inh,AID504770
O=C(Cc1csc(-c2cccs2)n1)Oc1ccc2c(c1)CCC2,.,0.7
N#Cc1ccc(C=Nc2ccc(S(N)(=O)=O)cc2)cc1,0.03,1.8
CCCOC(=O)c1cccc(N2COc3ccc4c(C)cc(=O)oc4c3C2)c1,17.4,.
COc1ccc(N2CCN(c3cc(N(C)CCO)c([N+](=O)[O-])c4nonc34)CC2)cc1,-1.23,.
COc1cccc(CC(=O)N(Cc2ccc3c(c2)OCO3)C2CCCC2)c1,.,0.05
COc1cc(C2C(N3C(=O)c4ccc([N+](=O)[O-])cc4C3=O)C(=O)N2c2ccc(Cl)cc2C)cc(OC)c1OC (centres undefined),-0.21,.
O=S(=O)(NCc1cccs1)c1ccc(Br)cc1,.,-0.75
COc1ccc(-c2nnc(SCC(=O)NC(C)(C)C)n2C(C)C)cc1,.,2
CCc1c(O)n(C2CCCCC2)c(=S)[nH]c1=O,0.48,0.1
CC1=C(C(=O)OC(C)C)C(c2sccc2C)NC(=O)N1 (centres undefined),-0.055,0.85
COC(=O)c1ccc(COc2ccc(C3C(C#N)=C(N)Oc4n[nH]c(C)c43)cc2OC)o1 (centres undefined),-0.165,.
O=C(COc1ccc(Cl)cc1)N=Nc1c(O)n(CN2CCCCCC2)c2ccccc12,-0.02,0.1
C=CCNC(=S)NNC(=O)c1ccncc1,-0.485,.
Cc1c(C(=O)N2CCC(C(N)=O)CC2)oc2ccc(Br)cc12,.,-0.6
CN(C)CCNC(=O)c1cccc(S(=O)(=O)Nc2ccccc2Cl)c1,.,-1
CC1(C)OC2OC(C(=O)Nc3ccccc3I)C3OC(C)(C)OC3C2O1 (centres undefined),-0.555,.
Cn1c(=O)n(C)c2cc(CN)ccc21,0.2,0.35
CCC(C)Sc1nc2ccccc2c(=O)[nH]1 (centres undefined),3.93,1.4
Cc1ccc2nc(C(F)(F)F)[nH]c2c1,0.095,0.1
CC(CCc1ccccc1)NC(=O)Cc1nnc(-c2ccc(Br)cc2)o1 (centres undefined),0.765,1.3
S=C(NNc1ccc(Cl)nn1)NC1CC2CCC1C2 (centres undefined),.,1.85
O=S(=O)(NCC1CCCO1)c1ccc(Br)cc1 (centres undefined),-0.29,-1.1
COc1ccc(-c2cn3cccc(C)c3n2)cc1Br,6.38,.
COc1ccc(OC)c(/C=C(/C#N)c2nc(-c3cc4c(ccc5ccccc54)oc3=O)cs2)c1,0.985,.
CCc1ccc(NC(=O)NCCCN2CCN(c3ccccc3)CC2)cc1,-0.93,-0.05
Cc1ccc(C)n1-c1sccc1C(=O)NN,-0.5,.
Cc1ccccc1Cn1cc(NC(=O)c2cc(-c3ccc4c(c3)OCO4)on2)cn1,1.29,-0.2
Fc1ccc(-c2cn3c(-c4ccccc4)c(-c4ccccc4)nc3[nH]2)cc1,44.2,0.65
CCC1(c2ccccc2)NC(=S)N(c2ccccc2)N1 (centres undefined),0.17,-0.45
CC1CCCN(C(=O)c2cc(-c3ccco3)nc3ccccc23)C1 (centres undefined),67.9,0.45
O=C(NCc1csc(-c2cccs2)n1)C1CCC1,24.6,0.45
CCOc1ccc2c(c1)C(C)CC(C)(C)N2C(=O)NC1CCCCC1 (centres undefined),-0.08,.
COc1ccc(CCNC(=O)c2sc3ncn(CC(=O)Nc4ccc(C)c(Cl)c4)c(=O)c3c2C)cc1OC,-0.43,.
O=C(c1ccccc1)C1CCN(C(=O)c2ccc(Cl)cc2)CC1,0.2,0.75
CCOC(=O)c1sc2nc(N3CCOCC3)c3c(c2c1N)CC(C)(C)OC3,0.03,.
CC(=O)c1cnc2cc(C)nn2c1C,0.06,.
Cc1ccc(C2=NN(C(=O)COC(=O)c3ccc(-n4cnnn4)cc3)C(c3ccco3)C2)cc1 (centres undefined),.,-0.3
CC1(C)CC(=O)C2=C(C1)Nc1ccccc1NC2c1coc2c(Cl)cc(Cl)cc2c1=O (centres undefined),-1.9,.
CC(=O)c1ccc(OCc2cc(F)cc(F)c2)cc1,0.64,.
COc1ccc(C2(c3ccccc3F)C=Cc3c(ccc4cc(OC)ccc34)O2)cc1 (centres undefined),-0.31,.
c1ccc(-c2nc(-c3cccs3)cs2)cc1,5.64,.
Cc1[nH]cnc1C(F)(F)F,0.3,-0.3
CCN(Cc1ccccc1)C(=O)CCN1C(=O)/C(=C\c2ccco2)SC1=S,.,-0.75
O=C(N/N=C/C=C/c1ccccc1)c1cc(C2CC2)nc2ccccc12,0.5,.
COc1ccc(OC)c2ccccc12,47.8,.
CCOc1ccc(NC(=O)C2CC=CCC2C(=O)OC(C)CC)cc1 (centres undefined),0.195,-0.15
COc1ccc(NC(=O)c2cc3c(s2)-c2cc(C)ccc2SC3)cc1,0.165,.
CCOC(=O)c1ccc(Nc2cc(C)nc(C)c2C(=O)OCC)cc1,-0.08,0.1
Cc1csc(NC(=O)CC(C)(C)C)n1,.,-0.4
CN(C)c1ccc(/C=C/C(O)=C2/C(=O)N(C)C3(C)CC2c2ccccc2O3)cc1 (centres undefined),-0.04,-0.75
O=C(/C=N/O)Nc1ccc(C(=O)O)cc1,.,-0.5
CCC(C)(C)C(=O)NCc1ccc2c(c1)OCO2,-0.095,0.25
CCOC(=O)c1cc2c(N)[nH]nc2[nH]c1=O,.,-0.75
CCCOC(=O)c1cc(-c2ccc(/C=C3\C(=O)N(CCCO)C(=O)C(C#N)=C3C)o2)ccc1Cl,1.24,0.1
CNC(=O)CCc1cc2ccccc2[nH]1,0.37,-1.3
O=S(=O)(Cc1noc(-c2ccc(OC(F)(F)F)cc2)n1)Cc1ccco1,10.7,-0.15
C#CCOC(=O)c1c(-c2c(Cl)cccc2Cl)noc1C,0.35,.
CC(=O)Nc1ccc(Nc2c3c4c(cccc4[nH]c2=O)C(=O)c2ccccc2-3)cc1,-0.37,-0.95
C=CCSCC1Nc2cc(Cl)c(S(N)(=O)=O)cc2S(=O)(=O)N1 (centres undefined),-0.46&0.72,-0.3
Cc1cc(/C=N/NC(=S)Nc2cccnc2)c(C)n1-c1cccc(S(=O)(=O)N2CCOCC2)c1,.,0.25
# Next records follow:
SMILES,CapD inh,AID504770
CC(C)(C)OC(=O)Nc1cn(-c2ccccc2)nc1-c1ccccc1,0.04,0.9
C=CCN(c1ccccc1)S(=O)(=O)c1ccc2[nH]cc(C(=O)N(Cc3ccco3)CC3CCCO3)c(=O)c2c1 (centres undefined),-0.105,.
O=C(O)C1C2C=CC3(CN(C(c4ccccc4)c4ccccc4)C(=O)C13)O2 (centres undefined),.,-0.45
COc1ccc(C(=O)On2c(-c3ccccc3)cc3ccccc32)cc1,-0.405,0.45
CCOC(=O)C1=C(SCC)c2ccc(-c3ccccc3)n2C1=O,-2.19,0.4
CNC(C)Cc1ccccn1 (centres undefined),.,-0.3
CCN(CC)S(=O)(=O)c1ccc(N2CC(C(=O)Nc3ccc4c(c3)OCO4)CC2=O)cc1 (centres undefined),.,-0.1
COc1nc(C)cc(C)c1C(N)=O,0.17,0.2
C/C(=N\OCc1ccc(C(=O)N2CCCCC2)o1)c1cccc(C(F)(F)F)c1,0.965,-0.3
CSc1cccc(NC(=O)c2ccc(CN3CCOCC3)cc2)c1,0.01,-1
COc1ccc(C)cc1NS(C)(=O)=O,.,-1.05
CCc1nnc(N2CCN(c3ncnc4c3oc3ccccc34)CC2)s1,2.97,-0.55
COc1ccc(N2CC(C(=O)NCCc3c[nH]c4ccccc34)CC2=O)cc1 (centres undefined),.,-0.5
Fc1ccc(-c2nc(-c3ccc(C(F)(F)F)cc3)no2)c(Cl)c1,10.7,0.7
Cc1ccc(Nc2cc(N3CCCC(C)C3)c3nonc3c2[N+](=O)[O-])c(C)c1 (centres undefined),-0.46,.
CCC(Oc1ccccc1)C(=O)N1CCC(C(N)=O)CC1 (centres undefined),0.365,-0.8
Nc1nc(Cn2c(-c3nonc3N)nc3ccccc32)nc(N2CCCCC2)n1,0.195,.
CCN(CC)C(=S)Nc1c(C)cccc1C,.,0
COc1ccc(Cl)cc1NC(=O)Cn1nc(C(F)(F)F)c(Br)c1C,0.67,.
O=C(Nc1ccc(Br)cc1)/C(=C\c1ccc2c(c1)OCO2)NC(=O)c1ccccc1Br,0.045,.
Cc1nc(/C(C#N)=N\O)cs1,-1.9,0.85
Cc1nc2cccc(C(=O)Oc3ccc(C(C)(C)C)cc3)c2o1,0.01,-0.1
Cn1cc(C#N)c2ccccc21,.,0.05
O=C(c1ccc(Cl)cc1)N1CCC(c2nc(-c3ccc(F)cc3)no2)CC1,.,1.4
O=C(c1ccc2c(c1)OCO2)N1CCCCCCC1,.,0.15
Cc1cc(=O)oc2c3c(ccc12)O/C(=C\c1ccccc1[N+](=O)[O-])C3=O,0.065,.
Cc1cccc(CCOC(=O)NCc2ccc(Cl)cc2)c1,0.51,.
Cc1[nH]c2c(Br)ccc3c2c1CCN1C(=O)OC(C)(C)C31C (centres undefined),-0.14,.
Cc1cc(C)c2c(c1)CC(C)(C)c1nc3cc(C)c(C)cc3nc1-2,-0.575,.
Cc1cccc(-n2c(CNC(=O)c3ccco3)nnc2SCC(=O)Nc2nnc(C)s2)c1,-0.07,.
CCc1ccc(-n2nnc(S(=O)(=O)c3ccc(CC)cc3)c2N)cc1,-0.525,0.4
Cc1ccc2nc(Nc3cccc(O)c3)c3nncn3c2c1,4.75,2.3
O=C(CSc1ccccc1)Nc1nc2ccc(Br)cc2s1,0.21,0.5
CCN1CCN(S(=O)(=O)c2ccc(F)c(C(=O)Nc3c(F)cc(F)cc3Br)c2)CC1,-0.29,.
COc1ccccc1/C=C/C1C(C(=O)OCC(C)C)=C(C)N=C2SCCC(=O)N21 (centres undefined),0.425,-0.3
CCOc1ccc(C2=C(Cl)C=C(c3ccc(C)cc3)c3ccccc3O2)cc1,0.09,.
O=C(Cn1cc(C(F)(F)F)cc(Cl)c1=O)Nc1ncccn1,.,-0.15
Cc1onc(-c2ccccc2Cl)c1-c1nnnn1-c1ccccc1,-0.19,-0.9

# Compounds from the list above containing fluorine (16):
SMILES,CapD inh,AID504770
CC(C)c1ccc(C2OC3(C(=O)c4ccccc4C3=O)C3C(=O)N(c4cccc(C(F)(F)F)c4)C(=O)C23)cc1 (centres undefined),0.305,.
COc1ccc(OC)c(N2CC(c3nc4ccccc4n3Cc3ccccc3F)CC2=O)c1 (centres undefined),-0.75,0.4
CCOC(=O)c1cnc2cc(Cl)c(F)cc2c1N1CC(C)OC(C)C1 (centres undefined),-0.415,-1.05
FC(F)(F)c1ccc2nc(-c3ccccc3)c(-c3ccccc3)nc2c1,-0.345,.
Cc1ccc2nc(C(F)(F)F)[nH]c2c1,0.095,0.1
Fc1ccc(-c2cn3c(-c4ccccc4)c(-c4ccccc4)nc3[nH]2)cc1,44.2,0.65
CC(=O)c1ccc(OCc2cc(F)cc(F)c2)cc1,0.64,.
COc1ccc(C2(c3ccccc3F)C=Cc3c(ccc4cc(OC)ccc34)O2)cc1 (centres undefined),-0.31,.
Cc1[nH]cnc1C(F)(F)F,0.3,-0.3
O=S(=O)(Cc1noc(-c2ccc(OC(F)(F)F)cc2)n1)Cc1ccco1,10.7,-0.15
C/C(=N\OCc1ccc(C(=O)N2CCCCC2)o1)c1cccc(C(F)(F)F)c1,0.965,-0.3
Fc1ccc(-c2nc(-c3ccc(C(F)(F)F)cc3)no2)c(Cl)c1,10.7,0.7
COc1ccc(Cl)cc1NC(=O)Cn1nc(C(F)(F)F)c(Br)c1C,0.67,.
O=C(c1ccc(Cl)cc1)N1CCC(c2nc(-c3ccc(F)cc3)no2)CC1,.,1.4
CCN1CCN(S(=O)(=O)c2ccc(F)c(C(=O)Nc3c(F)cc(F)cc3Br)c2)CC1,-0.29,.
O=C(Cn1cc(C(F)(F)F)cc(Cl)c1=O)Nc1ncccn1,.,-0.15
